ugtP null kill: kills S. aureus RN4220 lacking UgtP. S. aureus RN4220 ugtP deletion, OD600 growth, 16 h; some inactives read as strong as hits. growth inhibition, % (concentration not given with the values). actives 0.54% (n = 330,000);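 active = z-score under -3 and OD600 up to 0.15 on both plates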;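 also: plate controls were untreated wells for no effect and antibiotic for full effect; wells of about 80 µL received 100 nL stock; the first replicate is given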
RN4220 kill: kills Staphylococcus aureus RN4220; S. aureus RN4220 growth, OD600, 16 h; inhibition, % (no concentration beside the values); actives 0.33% (n = 330,000); AID 1259311;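 active = z-score of -3 or lower and OD600 up to 0.18 on both plates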;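 also: plate controls were untreated cells for no effect and reference antibiotic for full effect; stock transfer was 100 nL into about 80 µL; one replicate is shown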
Mtb hypoxia rep: reduces hypoxia-regulated biosensor signal in M. tuberculosis; AID 1159583; actives 0.1% (n = 300,000); fluorescence inhibition, % (test concentration not listed); M. tuberculosis hypoxia-regulated fluorescent reporter, fluorescence;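 active = 35 to 45% if threefold the growth effect, above 45% if 1.5-fold the growth effect; inactive = the rest, general growth blockers included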;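 also: wells of about 50 µL received 100 nL stock; 0% = vehicle wells and 100% = reference inhibitor wells; whole bacteria with a GFP reporter of the hypoxia response; strong numbers were not always called active; many hits fall short of the cut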
PrP 5UTR inh: suppresses PrP 5' UTR mRNA reporter expression; cell-based PrP 5' UTR mRNA reporter, plate reader; inhibition, % (concentration not given with the values); actives 0.35% (n = 340,000);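 active = every replicate at 50% or more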;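 also: 0 = median of the neutral control wells; tested in H4 reporter cells; numbers are from one replicate; inactives centre near -14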
Bead autofluor: counter-screen for toxin protease inhibitors: compound fluorescence; compound autofluorescence counterscreen, microsphere flow cytometry; hits give high values; fluorescence intensity (no concentration beside the values); actives 3.1% (n = 360,000);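 active = at least 3 SD above the mean of all compounds, about 16000 in these data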;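 also: 100 nL of 1 mM stock went into each well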
BJeLR lethal: kills HRASV12-expressing BJeLR cells | BJeLR (HRASV12) viability, CellTiter-Glo ATP luminescence, 48 h; reference of the scale not given here | inhibition, % (no concentration beside the values) | actives 0.17% (n = 300,000) | AID 1554;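 active = replicate mean above 50%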;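 also: 50 nL library stock added to about 25 µL; numbers are from one replicate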
Mtb hypoxia rep growth: second read-out of Mtb hypoxia rep, no call of its own (marks repeat the call); growth inhibition, %; measured here: M. tuberculosis growth (absorbance);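 0% = vehicle and 100% = reference antibiotic; read after six days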
* = called active by the depositor; / = not tested or not shown.

SMILES	ugtP null kill	RN4220 kill	Mtb hypoxia rep	Mtb hypoxia rep growth	PrP 5UTR inh	Bead autofluor	BJeLR lethal
CC(=O)OC1CC(C)(C)N(OC(=O)c2ccc(N)cc2)C(C)(C)C1	9	1.9	3	5	-20	9802	/
Cc1nc2ccc(S(=O)(=O)N(C)CC(=O)NCCc3ccccc3)cc2s1	-1	1.6	7	-5	-15	4078	-6
COc1cccc(C(=O)Nc2nnc(S(=O)(=O)N3CCCCC3)s2)c1	24	27	-2	3	-9	4447	6
COc1ccccc1C1CCN(C(=O)c2cccs2)CC1	21	8.4	-5	-4	5	/	-3
CCN1CC(O)=C(c2nc3ccccc3s2)C1=N	1	-1.2	/	/	-17	4376	-1
COc1ccc(CNC(=S)NC2CCCC2)cc1	9	2.3	7	0	-15	2554	10
COC(=O)CSc1nn(-c2ccc(F)cc2)c(=S)s1	3	-2.0	-9	-13	-29	4484	8
Cc1nn(Cc2ccc(Cl)cc2Cl)c(C)c1NC(=O)c1ccc(COc2cc(Cl)ccc2Cl)o1	-11	2.1	-4	10	8	4689	-8
CCCn1c(SCC(=O)c2c(C)[nH]c(C)c2C(=O)OCC)nc2ccccc21	-7	4.8	8	3	-10	2015	2
COc1cccc(-c2cnc(NCc3cc(Cl)ccc3O)n2C)c1	28	-6.2	2	15	-9	5626	1
CCCn1c(N2CCN(Cc3cccc(C)c3)CC2)nc2c1c(=O)[nH]c(=O)n2C	10	2.3	-2	-1	-7	6210	-2
CN1c2ccsc2C(O)=C(C(=O)Nc2ccccc2)S1(=O)=O	-4	8.4	9	8	-16	4561	3
CC1=C(C(=O)Nc2cccnc2)C(c2ccncc2)n2nnnc2N1 (stereo unspecified)	-5	4.9	5	11	-33	19936*	0
N#CCc1ccc(Oc2ncc(C(F)(F)F)cc2Cl)cc1	0	4.4	7	9	-23	3343	5
Cc1ccc(S(=O)(=O)N(CCO)Cc2ccccc2)cc1	12	7.8	16	7	-44	4400	-6
CCC(=O)Nc1ccc(S(=O)(=O)Nc2cccnc2)cc1	6	2.4	2	0	-5	6588	2
O=C(Nc1ccccc1Oc1ccsc1C(=O)O)c1ccccc1F	-4	0.8	-2	7	-17	3090	-7
COc1ccccc1NC(=O)N(Cc1ccco1)Cc1cc2cc(C)cc(C)c2[nH]c1=O	20	-0.1	16	10	-14	2693	-6
Cc1nc2ccc(S(=O)(=O)NCC(=O)N(C)Cc3ccco3)cc2s1	-4	2.5	-3	-4	-21	3310	-5
Cc1cc(C)c(NS(=O)(=O)c2ccccc2)c(C)c1	2	6.7	17	10	-19	2979	/
O=C(/C=C/c1ccc(Cl)cc1)N1CCN(c2ccc(Cl)cc2[N+](=O)[O-])CC1	-6	11	6	-2	-8	2247	-4
O=[N+]([O-])C(=C1NCCN1)C(Cl)=C(Cl)Cl	5	5.0	-7	9	-18	3322	-6
Cc1cc(C=NNC(=O)c2ccccn2)c(C)n1-c1cccc([N+](=O)[O-])c1	7	-3.3	5	7	/	/	/
CCCc1cc(=O)oc2c(CN3CCN(C)CC3)c(O)c(Cl)cc12	-4	6.0	3	0	-64	9992	0

By substructure, the entries above containing an NH in an aromatic ring.
SMILES	ugtP null kill	RN4220 kill	Mtb hypoxia rep	Mtb hypoxia rep growth	PrP 5UTR inh	Bead autofluor	BJeLR lethal
CCCn1c(SCC(=O)c2c(C)[nH]c(C)c2C(=O)OCC)nc2ccccc21	-7	4.8	8	3	-10	2015	2
CCCn1c(N2CCN(Cc3cccc(C)c3)CC2)nc2c1c(=O)[nH]c(=O)n2C	10	2.3	-2	-1	-7	6210	-2
COc1ccccc1NC(=O)N(Cc1ccco1)Cc1cc2cc(C)cc(C)c2[nH]c1=O	20	-0.1	16	10	-14	2693	-6

Further results
SMILES	ugtP null kill	RN4220 kill	Mtb hypoxia rep	Mtb hypoxia rep growth	PrP 5UTR inh	Bead autofluor	BJeLR lethal
Cc1ccc(CN(C)C(=O)CN2C(=O)NC(c3ccccc3)(c3ccccc3)C2=O)c(C)c1	-13	-6.7	7	6	-12	4171	/
COc1ccc(/C=N/NS(=O)(=O)c2ccccc2)cc1OS(=O)(=O)c1ccc(C)cc1	/	/	/	/	-4	4379	2
Cn1c(-c2ccc(Br)cc2)cnc1NCc1cccnc1	3	1.5	7	7	-9	4050	8
Cc1cc(C)c(S(C)(=O)=O)c(Sc2ccc(Cl)cc2)n1	2	1.8	1	8	-8	2474	-10
COc1ccccc1S(=O)(=O)Cc1ccc(C(=O)N2CCN(c3ccccc3)CC2)o1	-4	-1.3	-15	-9	-2	21717*	-3
COC(=O)Cc1c(C)c2c(O)cc(C)cc2oc1=O	-3	6.6	1	4	1	2377	-2
COc1ccc(-c2csc(NC(=O)CSc3nc(C)nc4sc(C(=O)O)c(C)c34)n2)cc1	16	3.4	-15	16	-5	4745	0
CS(=O)(=O)N(CC(=O)N1CCC(C(N)=O)CC1)c1cc(C(F)(F)F)ccc1Cl	2	0.3	-2	-7	-9	3962	-3
CCOC(=O)c1cc(-c2ccncc2)nc2c1c(C)nn2C	4	5.6	-4	-2	-15	4518	2
CCn1cc(C(=O)N(C)CC(OC)OC)c(=O)c2cc(S(=O)(=O)N3CCOCC3)ccc21	14	5.9	-8	-13	-5	4480	-2
O=C(COC(=O)c1ccccc1Br)NCc1ccccc1	5	3.9	4	7	-73	2246	0
CC(=NNC(=O)c1csc(C)c1C)c1ccc(C)s1	6	-0.1	5	8	/	/	/

Molecules above containing a nitro group on carbon:
SMILES	ugtP null kill	RN4220 kill	Mtb hypoxia rep	Mtb hypoxia rep growth	PrP 5UTR inh	Bead autofluor	BJeLR lethal
O=C(/C=C/c1ccc(Cl)cc1)N1CCN(c2ccc(Cl)cc2[N+](=O)[O-])CC1	-6	11	6	-2	-8	2247	-4
O=[N+]([O-])C(=C1NCCN1)C(Cl)=C(Cl)Cl	5	5.0	-7	9	-18	3322	-6
Cc1cc(C=NNC(=O)c2ccccn2)c(C)n1-c1cccc([N+](=O)[O-])c1	7	-3.3	5	7	/	/	/

Later entries.
SMILES	ugtP null kill	RN4220 kill	Mtb hypoxia rep	Mtb hypoxia rep growth	PrP 5UTR inh	Bead autofluor	BJeLR lethal
O=C(O)c1ccccc1CSc1nc2ccccc2o1	0	5.3	9	2	-36	3260	10
CSc1ccc(CN2CCN(Cc3ccccc3)C(CCO)C2)cc1 (stereo unspecified)	2	3.4	13	5	-7	5413	14
CC(C)Cn1c(N)c(C(=O)COC(=O)C2CC(=O)N(c3ccc4c(c3)OCCO4)C2)c(=O)n(C)c1=O (stereo unspecified)	2	4.5	8	3	-9	5170	6
CCOc1ccc(CC(=O)NNC(=S)NCCc2ccccc2)cc1	5	-2.8	5	9	-9	4572	-9
CCC1SC2=NC(C)=C(C(=O)OC)C(c3cccs3)N2C1=O (stereo unspecified)	6	1.1	/	/	-16	4729	5
Cc1c(/C=C/C(=O)c2ccc(O)cc2)cnn1C	/	/	/	/	-47	10277	0
O=C(CSc1nc2ccccc2c(=O)n1-c1ccccc1Cl)Nc1cccc(S(=O)(=O)N2CCOCC2)c1	-10	6.1	-4	-1	-16	7052	-1
COc1cc(C=NNC(=O)c2c(-c3ccccc3)noc2C)cc(OC)c1OC	-4	3.7	6	-2	/	/	/
COc1ccc(CNC(=O)C2(CC3CC(c4ccccc4)=NO3)CCN(C(=O)Cc3ccc(F)cc3)CC2)cc1 (stereo unspecified)	/	/	/	/	-12	3746	-2
CC(NS(=O)(=O)c1cccc(C(=O)N(C)Cc2ccc(N3CCOCC3)cc2)c1)c1ccccc1 (stereo unspecified)	1	6.2	-8	-3	5	3796	/
COc1ccc(S(=O)(=O)Nc2c(C(=O)O)[nH]c3ccccc23)cc1	22	12	14	10	-15	5024	-1
Cc1ccc(NC(=O)CO/N=C(\N)c2nonc2N)cc1	4	5.6	13	17	-20	11052	5
Cc1nc(SC(C)C(=O)Nc2c(C)n(C)n(-c3ccccc3)c2=O)nc(C)c1C (stereo unspecified)	3	2.5	5	3	-15	3454	/
CCN(C(=O)c1cccc(S(=O)(=O)N2CCCCC2)c1)C1CCS(=O)(=O)C1 (stereo unspecified)	9	3.6	8	4	-13	/	3
CCOc1ccc(N(C)S(=O)(=O)c2ccc(-c3ccc(=O)[nH]n3)s2)cc1	-5	4.7	2	-2	6	4572	1
C=CCNC(=O)c1oc2ccc(S(=O)(=O)N(CC)CC)cc2c1C	-14	-0.5	-3	13	-31	24786*	0
COc1ccc(CN2CCN(C3CCC3)CC2CCO)c(F)c1 (stereo unspecified)	4	-0.5	12	-3	-38	3190	7
O=C1CCCc2[nH]nc(-c3cccnc3)c21	3	5.7	5	19	-11	14175	-6
C[N+](C)(C)C(Cc1ccccc1)C(=O)[O-] (stereo unspecified)	-6	6.3	/	/	-27	5585	8
CSc1nncn1/N=C/c1ccc([N+](=O)[O-])cc1	/	/	/	/	-6	4694	-2
S=c1[nH]c(-c2ccccc2)cn1/N=C/c1cccnc1	/	/	/	/	-6	4561	4
CCSc1oc(-c2ccco2)nc1S(=O)(=O)c1ccc(C)cc1	10	8.1	3	-2	-4	5305	0
COc1cc(NC(=O)CCc2nnc3ccc(NCc4ccco4)nn23)cc(OC)c1	4	-2.4	10	-5	-8	4287	12
Cc1ccc(C(=O)Nc2ncc(Cc3ccccc3)s2)o1	-15	-1.1	20	11	-19	24322*	6
O=C(CN1C(=O)NC2(CCCCC2)C1=O)Nc1cccc(S(=O)(=O)N2CCOCC2)c1	-1	0.8	2	-6	0	3346	-2
Cc1ccc(C(C)C)c(OCC(=O)Nn2c(C)nc3ccccc3c2=O)c1	-5	15	/	/	-24	2466	-7
CC(C)N1CCc2c(sc(NC(=O)c3ccc(S(=O)(=O)N4CCCCC4C)cc3)c2C(N)=O)C1 (stereo unspecified)	0	3.9	11	10	-2	5219	14
Cc1ccc(NC(=O)COC(=O)C2CCC(=O)N2)c([N+](=O)[O-])c1 (stereo unspecified)	8	4.9	16	17	-21	4168	4
COc1ccc(S(=O)(=O)NC2CCCC2)c(OC)c1	11	4.4	3	-4	-4	4167	4
COc1ccc(CCNC(=O)c2ccc3c(c2)N(Cc2ccc(C)cc2)CCS3)cc1OC	-8	-1.8	-2	-3	-14	5004	9
COc1cc(CC(=O)Nc2cccc(SC)c2)cc(OC)c1OC	1	4.5	9	0	-11	4746	0
CC(=O)c1ccc(S(=O)(=O)N2CCN(c3nc4c(C)c(C)ccc4cc3C#N)CC2)cc1	3	0.9	-3	3	/	13038	14
CN(C)c1nc2ncn(Cc3ccccc3)c2c(=O)[nH]1	6	2.6	7	20	0	5699	0
COc1cccc(CC(=O)Nc2ccc(S(=O)(=O)Nc3nc(C)cc(C)n3)cc2)c1	3	6.1	9	14	-27	4825	-1
CN1C(=O)/C(=C/C=C/c2ccco2)C(=O)NC1=S	-3	5.8	14	12	-6	3461	13
O=C(COC(=O)C1CCN(S(=O)(=O)c2cccc3cccnc23)CC1)c1ccc([N+](=O)[O-])cc1	10	-0.6	/	/	0	2380	3
CCCCN(CCCC)C(=S)NC(=O)c1ccccc1Cl	/	/	/	/	-2	10167	2
COc1ccc(C2CC(=O)C3=C(C2)Nc2ccccc2N(C(=O)CCC(=O)O)C3c2ccc(F)cc2)cc1 (stereo unspecified)	1	1.5	-5	3	-18	4958	-9
O=C(CCl)NCc1cc(-c2ccc(Cl)cc2)no1	20	24	25	29	-51	4157	7
O=C(Nc1cccnc1Cl)c1cc2c(s1)-c1ccccc1OC2	-2	1.3	9	6	-30	5473	6
CC(C)C(NC(=O)c1ccc(C(C)(C)C)cc1)C(=O)N1CCCC1 (stereo unspecified)	19	-0.4	11	9	-38	3086	6
CCOC(=O)c1c(NC(=O)Cn2nc(C(=O)O)c3ccccc3c2=O)sc(C)c1C	13	4.9	20	11	-14	5243	1
Cc1ccccc1NC(=S)Nc1ccc2cn[nH]c2c1	14	4.6	14	5	-37	6202	-2
Cc1cc(C(=O)COC(=O)C2CC2)c(C)n1-c1ccc(F)cc1	2	14	3	17	-16	4169	-4
COC(=O)C(C)(C)ONC(=O)Nc1ccccc1[N+](=O)[O-]	-1	3.5	4	3	-38	4222	-1
CC1CCCCC1NC(=O)/C(C#N)=C/c1ccccc1F (stereo unspecified)	46	46	7	15	-11	2524	-7
Cc1ccc(C(=O)OCn2ncc(Cl)c(Cl)c2=O)cc1	-2	10	4	10	-7	17159*	-6
O=C(NCCc1c[nH]c2ccccc12)c1cc2sccc2n1Cc1ccccc1	17	0.3	8	13	-9	4108	10
COc1ccc(-n2c(SCC(=O)N3CCCCC3)nc3ccccc3c2=O)cc1	5	-0.1	7	5	-5	3159	16

From PubChem BioAssay
